gsp ag = qHTS for Agonist of gsp, the Etiologic Mutation Responsible for Fibrous Dysplasia/McCune-Albright Syndrome: qHTS. gsp mutant cells, cAMP HTRF, 30 min; control for the full effect not named in the record. Potency, µM (series often up to 76.9 µM), for the others: at the highest dose activation (cAMP increase), usual class: activators. hit rate 0.13% among 340,000. AID 624287, 2012; active = well fitted activation curve with a large enough effect; inconclusive = small, poorly fitted or top-dose-only effect, or another doubt; inactive = no such curve, though single readings can be large or run the other way; cell line not stated here;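 further: phosphodiesterase inhibitor Ro 20-1724 added with compounds to block cAMP breakdown; potency means the concentration at half of the fitted maximal effect; nearly all actives have a fitted effect of over 60% in size; about a fifth of the inactives were tested at one dose only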
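Cells stably selected in G418 were plated at 2000/well, grown 16-24 hr, then given compounds in DMSO with the PDE inhibitor […] (300 uM solution added) for 30 min at 37C; cAMP was read by HTRF.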
Sfp PPTase inh = qHTS Assay for Inhibitors of Bacillus subtilis Sfp phosphopantetheinyl transferase (PPTase). hit rate 3.5% among 310,000. Potency, µM, without a hit: max response, negative = inhibition, actives largely listed as inhibitors. AID 1490, 2009. Biochemical Sfp PPTase activity, qHTS. 4'-phosphopantetheinyl transferase ffp (Bacillus subtilis), Q9F4F7; active means well fitted inhibition curve with a large enough effect; inconclusive means small, poorly fitted or top-dose-only effect, or another doubt; inactive means no such curve, though single readings can be large or run the other way;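 further: the enzyme is Sfp with the accession as filed and its product quenches rhodamine fluorescence; potency means the concentration at half of the fitted maximal effect; 0% = enzyme reaction without inhibitor and -100% = no enzyme wells; top concentration of the series not given in the record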
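Fluorescence-quenching assay with 15 nM Sfp, 5 uM rhodamine-CoA and 12.5 uM BHQ-2-labelled ybbR peptide in pH 7.6 Hepes/MgCl2 buffer. Enzyme was pre-incubated with compound for 15 min at room temperature. Rate was taken from the 30-min fluorescence change (525/598 nm).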
TRPML1 blocker = qHTS for Inhibitors of the Human Mucolipin Transient Receptor Potential 1 (TRPML1). Mucolipin-1 (Homo sapiens), Q9GZU1. TRPML1-inducible cells, Ca2+ dye fluorescence, FDSS; active compounds read low; inhibition of EC80 agonist-evoked calcium signal. activity change, negative = inhibition, % (concentration not given with the values). hit rate 0.02% among 390,000. AID 624415, 2012; in the data active means activity change below about -50%; inconclusive means about -30% to -50%; inactive means above about -30%;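 further: stimulus is agonist 54-4 at its EC80 concentration; on the % scale 0 is the no-effect control and ±100 the full control effect; the text of the record puts the active cut at -80%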
Target sequence (Q9GZU1 whole entry, looked up): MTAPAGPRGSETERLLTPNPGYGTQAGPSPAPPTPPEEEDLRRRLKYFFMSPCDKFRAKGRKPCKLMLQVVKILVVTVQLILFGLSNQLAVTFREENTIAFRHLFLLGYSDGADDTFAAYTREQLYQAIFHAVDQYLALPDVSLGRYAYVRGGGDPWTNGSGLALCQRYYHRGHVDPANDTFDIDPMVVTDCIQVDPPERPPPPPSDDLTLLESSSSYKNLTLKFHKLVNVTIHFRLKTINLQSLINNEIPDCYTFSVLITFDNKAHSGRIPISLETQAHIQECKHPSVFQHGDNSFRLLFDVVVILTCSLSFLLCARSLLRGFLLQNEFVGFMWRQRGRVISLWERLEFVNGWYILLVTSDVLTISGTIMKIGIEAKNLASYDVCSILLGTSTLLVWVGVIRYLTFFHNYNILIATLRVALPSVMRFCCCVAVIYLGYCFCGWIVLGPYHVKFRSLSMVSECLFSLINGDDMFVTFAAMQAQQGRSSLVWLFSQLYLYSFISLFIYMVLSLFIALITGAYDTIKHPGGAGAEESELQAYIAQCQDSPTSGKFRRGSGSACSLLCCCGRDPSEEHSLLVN
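TRPML1-DL cells, Tet-induced overnight (~16 h, 37 °C) at 1,500 cells/well, were loaded with Ca8 no-wash dye plus quencher for 45-90 min at room temperature. Compounds were pinned during FDSS kinetic reading; agonist 54-4 at EC80 (4 uM final) then added.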
TRPV1 PAM = HTS Assay for Compounds that Act as Potentiators of the Vanilloid Receptor 1; TRPV1-expressing cells, Fluo-8 calcium influx, capsaicin EC20 potentiation; host cell line not named in the record; control for the full effect not named in the record; potentiation, % at 8.33 µM; hit rate 0.02% among 320,000; active means potentiation above 80%; inconclusive means 30% to 80%; inactive means below 30%; further: 0% is about no effect
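Cells expressing TRPV1 were dye-loaded with Fluo-8 and read kinetically: 10 s baseline, 3 min after compound (agonist portion), then 2 min after EC20 capsaicin (allosteric enhancer portion). Calcium-bound dye fluorescence at 480/520 nm.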
gsp antag = qHTS for Antagonists of gsp, the Etiologic Mutation Responsible for Fibrous Dysplasia/McCune-Albright Syndrome: qHTS; AID 624288, 2012; hit rate 0.4% among 340,000; gsp-mutant cells, cAMP HTRF, 30 min; control for the full effect not named in the record; Potency, µM (top dose mostly 76.9 µM), for the others: at the top dose activity change, negative = inhibition, usual class: inhibitors; active = falling curve of any shape with a large fitted effect; inconclusive = falling curve, mostly with a smaller effect; inactive = flat or rising curve; cell line not stated here;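 further: intracellular cAMP measured with PDE inhibitor Ro 20-1724 present during compound exposure; potency means the concentration at half of the fitted maximal effect; on the % scale 0 is the no-effect control and ±100 the full control effect; nearly all actives have a fitted effect of over 65% in size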
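Cells in G418 medium, seeded 16-24 h, 37C; buffer exchange to DPBS + 1 mM CaCl2, 0.5 mM MgCl2, 0.05% BSA; cpds in DMSO + […] (300 uM stock), 30 min 37C; HTRF cAMP detection.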
Menin MLL FP FL = qHTS Assay for Inhibitors Targeting the Menin-MLL Interaction in MLL Related Leukemias: Competition With Fluorescein Labeled MLL-derived Peptide; Fluorescence polarization, fluorescein-MLL peptide displacement from menin; FP activity change, % at 61.4 µM; 290,000 tested, under 10 active; AID 1766, 2009; inconclusive = falling polarisation curve, or a change in total fluorescence; inactive = total fluorescence flat and polarisation flat or rising; no compound was filed as active; the % refers to the polarisation; negative = inhibition;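 further: % of control where 0% means no effect; inhibitors lower the polarisation; unlabelled MLL peptide was the positive control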
ClpP mod = qHTS Assay for Activators of ClpP | ATP-dependent Clp protease proteolytic subunit (Bacillus subtilis (strain 168)), P80244 | purified B. subtilis ClpP, FRET peptide cleavage, 20 min | Potency, µM (highest dose often 57.5 µM), for inactives: top-dose activity change, negative = active | hit rate 1.9% among 340,000 | AID 651965, 2013; active = well fitted falling curve with a large enough effect; inconclusive = small, poorly fitted or top-dose-only effect; inactive = no such curve, though single readings can be large or run the other way; further: potency means the concentration at half of the fitted maximal effect; the source files actives as falling curves though it sought activators and does not explain the sign; nearly all actives have a fitted effect of over 65% in size; many hits overshoot -100%
Target sequence (P80244 whole entry, looked up): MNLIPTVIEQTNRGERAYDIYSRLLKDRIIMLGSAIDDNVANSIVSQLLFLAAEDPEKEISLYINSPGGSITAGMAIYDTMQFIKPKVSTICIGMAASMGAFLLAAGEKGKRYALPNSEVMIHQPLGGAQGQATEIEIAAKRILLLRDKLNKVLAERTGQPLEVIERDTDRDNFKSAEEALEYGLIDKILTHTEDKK
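Buffer: 100 mM Tris/HCl pH8, 100 mM KCl, 0.05% low protease BSA, 2.5% glycerol, 0.01% Tween-20. ClpP 10 microg/mL final; 20 min RT; delta FRET normalized to ADEP and DMSO controls.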
The depositor's hits bear a star; ? = inconclusive; . = not tested or not shown; & = joins results of further samples; ! = a repeat was not active; [ ] = another dose, or the depositor's remark. This is a random part of the collection; any-hit rate near 4.9%.

Each structure is followed by: gsp ag	Sfp PPTase inh	TRPML1 blocker	TRPV1 PAM	gsp antag	Menin MLL FP FL	ClpP mod
> Cc1cc(/C(N)=N/OC(=O)Nc2ccc(Cl)cc2)no1
→ 6.8%[15.4 µM]	4.7%	-3.5	-16.7	-5.9%	-2.2	.
> COc1ccc(NC(=O)CS(=O)CC(=O)Nc2cc(Cl)ccc2OC)cc1 (stereo not given)
→ -4.5%	5.2%	35.4	-10.5	6.5%	1.2	-2.0%
> COc1ccc(/C=C2\C(=N)N3N=C(CC(=O)N4CCCCC4)SC3=NC2=O)cc1
→ -1.9%	17.1%	6.6	-1.3	-4.9%	1.7	1.7%
> c1ccc(CSCc2cn3ccsc3n2)cc1
→ 6.5%	3.3%	15.8	-11.9	-0.5%	4.4	-1.2%
> O=C(c1ccc(-c2ccccc2)cc1)N1CCN(C(=O)c2ccco2)CC1
→ 8.0%	4.5%	4.3	-15.6	-4.2%	6.4	-1.3%
> O=C(NC1CC1)c1cc2c(F)cccc2s1
→ -2.1%[15.4 µM]	-3.8%	6.2	?	3.7%	-1.1	.
> S=C(Nc1ccccc1)N1CCN(c2ccc(N3CCOCC3)nn2)CC1
→ 15.9%[15.4 µM]	11.8%	2.4	3.0	-19.9%	-0.2	.
> CCOC(=O)c1[nH]ncc1CN1CCC(Cc2ccccc2)(C(=O)OCC)CC1
→ 3.3%	16.9%	-3.9	0.8	2.8%	2.8	-1.3%
> O=C(Cc1cccc(NC(=O)C2CCCN(C(=O)C3CC3)C2)c1)Nc1cccc(C(=O)N2CCOCC2)c1 (stereo not given)
→ .	.	39.7	.	2.5%	.	0.1%
> CC(C)c1nc2c(c(=O)n(C)c(=O)n2C)n1C
→ ?	12.7%	2.9	-0.4	4.3%	0.5	-0.3%
> Cc1ccc(S(=O)(=O)N2[C@@H](c3ccc(Br)cc3)C(C(=O)O)=CC[C@H]2c2ccc(Cl)c(Cl)c2)cc1
→ .	.	61.5	.	-17.0%	.	1.5%
> CCCCN=Cc1sc2ccc(OCC)cc2c1O
→ -30.2%[inhibitor]	0.8%	0.3	21.3	-23.3%	7.5	1.3%
> CCN(CC(=O)NCc1ccc(Cl)cc1)C(=O)/C=C/c1cccs1
→ -10.8%[15.4 µM]	23.3%	-3.1	-9.6	1.6%	-4.7	-5.2%
> CCCCCOc1ccc(C(=O)CCN2CCOCC2)cc1
→ 5.7%[15.4 µM]	-6.2%	-0.6	-10.5	5.0%	-1.1	-8.1%
> COc1cc(NC(=O)COC(=O)c2cnc(C)cn2)c(C)cc1[N+](=O)[O-]
→ 0.6%	17.6%	2.0	9.9	-23.5%	0.0	-0.8%
> Cc1ccc(N(CC(=O)Nc2ccccc2C(=O)N2CCOCC2)S(C)(=O)=O)cc1
→ -0.3%	11.1%	-0.9	-25.5	8.8%	0.9	-0.5%
> COc1ccc(CCNC(=O)CSCc2ccc(Cl)cc2)cc1OC
→ -53.6%[inhibitor]	14.3%	6.6	-21.1	-8.0%	5.8	-0.6%
> CC1=NN(C(=O)c2ccc(Cl)cc2)C(O)(c2ccccc2)C1 (stereo not given)
→ 8.1%	12.7%	-3.7	7.4	-7.1%	2.0	.
> C#CCOCCOCCOCCNc1nc(N2CCOCC2)nc(N2CCN(C(=O)[C@H](CCC(=O)O)n3cc(C(N)Cc4ccc(O)cc4)nn3)CC2)n1 (stereo not given in full)
→ -2.4%	?	7.3	?	4.0%	1.9	-2.2%
> C=CCn1c(CCSCc2ccccc2)n[nH]c1=S
→ -33.7%[inhibitor]	-0.5%	7.0	8.9	3.1%	2.5	0.4%
> COc1ccc(CC(=O)Nc2cccc(-c3csc(C)n3)c2)cc1
→ -5.9%	2.6%	-11.7	-13.9	-17.2%	3.5	-2.4%
> O=C(NCc1ccc2c(c1)OCO2)c1cccc2c1C(=O)N(C1CCCCC1)C2
→ ?	-2.2%	5.3	-11.8	8.0%	-2.2	-0.4%
> CCC1Sc2ccc(S(=O)(=O)CCC(=O)Nc3ccccc3Cl)cc2NC1=O (stereo not given)
→ 5.7%	19.5%	-3.8	-6.4	-2.5%	2.1	-2.7%
> O=C(C1CC(=O)N(C2CCCCC2)C1)N1CCN(c2cccc(C(F)(F)F)c2)CC1 (stereo not given)
→ -4.4%	-7.2%	-12.9	-16.4	2.1%	6.8	-1.6%
> CCCc1n[nH]c2c1C(=O)CC(C)(C)C2
→ -17.1%	9.5%	21.7	0.5	-0.2%	-1.4	-1.3%
> O=C(CSc1ccc(-c2ccccn2)nn1)NCc1ccc(F)cc1
→ 5.9%[15.4 µM]	-2.4%	12.9	-3.8	-7.5%	-0.1	.
> COC(=O)Cn1cc(/C=N/NC(=O)c2ccc(C#N)cc2F)c2ccccc21
→ 2.2%	9.2%	-11.9	19.3	-7.6%	3.2	-0.8%
> COc1ccc(C2=NC(c3ccccc3)CO2)cc1 (stereo not given)
→ .	-3.5%	.	2.8	.	1.2	.
> CSc1ccccc1C(=O)Nc1cccc(C(C)=O)c1
→ -52.6%[inhibitor]	17.8%	-11.3	9.6	-2.5%	0.6	-1.1%
> Cc1ccc(NNC(=O)c2ccno2)cc1C
→ -4.0%[15.4 µM]	-17.0%	15.2	17.4	1.4%	-0.5	0.2%
> COc1ccc2nc(NNC(=O)c3cc(=O)c4ccccc4o3)sc2c1
→ -59.7%[inhibitor]	12.6µM*	-3.7	4.7	-9.4%	18.6	-4.3%
> Cc1c(N/C=C(\Cl)C(=O)C(F)(F)F)c(=O)n(-c2ccccc2)n1C
→ 9.4%[15.4 µM]	22.4µM*	33.3	1.4	-0.7%	-0.1	.
> COc1cc(/C=C2\SC(=S)N(CC(=O)NC3=NCCS3)C2=O)cc(OC)c1OC
→ -11.9%[15.4 µM]	8.0%	6.0	2.0	-1.1%	?	.
> CCn1cc(C(=O)N[C@@H](CC(C)C)C(=O)NCCCn2ccnc2)c(=O)c2cc3c(cc21)OCO3
→ -18.0%	13.8%	-4.7	4.9	-1.3%	.	-8.0%
> Cn1c(C(=O)NCCN2CCOCC2)cc2sccc21
→ 22.7%	18.8%	17.4	-3.3	7.8%	4.8	-2.6%
> CCOc1ccccc1CNC(=O)c1cc2oc3ccccc3c2n1CC
→ 7.3%	-6.7%	19.8&-5.7	4.7	-7.1%	1.9	31.6µM*!
> COc1cc([N+](=O)[O-])ccc1NC(=O)NNC(=O)c1sccc1C
→ 40.2%	16.4%	-8.3	-4.7	-7.4%	3.0	0.1%
> Cc1cccc(N=C2NN=C(c3ccccc3F)CS2)c1C
→ 19.6%	1.1%	19.2	1.4	4.6%	-0.2	.
> Cc1ccccc1OCC(=O)N(CC(C)C)c1c(N)n(CC(C)C)c(=O)[nH]c1=O
→ 2.2%[15.4 µM]	4.0%	-7.8	.	8.2%	1.4	.
> Cc1c(Nc2cc(N3CCOCC3)c3nonc3c2[N+](=O)[O-])c(=O)n(-c2ccccc2)n1C
→ .	13.6%	.	2.6	.	-7.5	.
> O=C(COC(=O)C1COc2ccccc2O1)NC(=O)NC1CCCC1 (stereo not given)
→ -37.8%[inhibitor]	10.4%	75.8	2.9	-9.4%	3.5	-0.4%
> Cc1cc(/C=C2\SC(=S)NC2=O)c(C)[nH]1
→ -5.2%	-13.2%	5.9	4.5	-25.2%	?	.
> O=C(CSC(=S)N1CCOCC1)Nc1nccs1
→ 0.8%	0.5%	.	3.0	-1.6%	1.5	0.3%
> O=C(NN1C(=O)C2C3CCC(O3)C2C1=O)c1ccco1 (stereo not given)
→ 1.9%	8.6%	-11.5	-4.3	11.4%	2.9	-3.5%
> C=CCc1ccccc1OCC(O)CN1CCN(c2ccc(C)cc2)CC1 (stereo not given)
→ -1.0%	?	-12.5	13.4	6.9%	0.1	0.7%
> O=C1CCC([N+](=O)[O-])C(c2ccc(Cl)cc2)N1 (stereo not given)
→ -32.5%	9.9%	9.8	7.7	1.3%	-1.1	-4.6%
> COc1ccccc1CNC(=O)CN(c1ccc(C)cc1)S(=O)(=O)c1c(C)n[nH]c1C
→ 5.9%	14.5%	-5.6	-10.5	-22.7%	4.1	-1.2%
> CCOC(=O)c1c(-c2ccc(F)cc2)csc1NC(=O)CN1C(=O)NC2(CCCCC2C)C1=O (stereo not given)
→ ?	1.4%	9.4	2.1	-42.1%	-1.1	4.0%
> CS(=O)(=O)N1CCCC(C(=O)NCCN2CCC(Cc3ccccc3)CC2)C1 (stereo not given)
→ 7.5%	8.0%	-8.2	-7.5	0.6%	1.5	0.8%
> CCOc1ccc(NC(=S)N2CCCN(Cc3cccc(Cl)c3)C2)cc1
→ -0.7%[15.4 µM]	12.1%	-9.9	-6.9	-13.8%	-1.1	.
> COc1cc(C(=O)N2CCSCC2)ccc1OC1CCN(C(C)=O)CC1
→ 13.6%	5.5%	3.1	-5.8	10.1%	.	-2.1%
> CCNC(=S)NNc1nncc2ccccc12
→ 16.1%[15.4 µM]	3.98µM*	3.6	-25.1	-13.5%	-1.4	.
> COc1cccc(CN2CCNC(=O)C2CC(=O)NCc2cn3ccc(C)cc3n2)c1OC (stereo not given)
→ 11.4%	17.9%	-3.3	0.9	-10.4%	2.5	3.4%
> Cc1ccc(NC(=O)CC2C(=O)NC3CCCCC3N2C(=O)c2ccc(F)cc2)cc1C (stereo not given)
→ -36.5%[inhibitor]	-17.4%	-7.5	-4.4	8.2%	2.4	-0.7%
> CCCC(=O)Nc1ccc(C(=O)/C=C/c2ccc(SC)cc2)cc1
→ 2.3%	1.9%	-4.3	15.1	-4.1%	10.7	-20.2%

Source: PubChem (National Center for Advancing Translational Sciences (NCATS))
